Assay outcomes: PubChem, several laboratories
UUG fidelity = modulators of yeast start codon fidelity, primary screen, whole organism, S. cerevisiae, single point, plate reader | S. cerevisiae UUG-firefly luciferase reporter, luminescence/redox ratio | activity score, % at 18.7 µM | actives 0.13% (n = 350,000) | AID 602363, 2012;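 active = replicate mean at a twofold rise or more, about +100% in these data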;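 also: firefly luciferase made from a UUG start codon reports start codon fidelity; reporter light over untreated wells divided by growth signal over untreated wells; some hits fall short of that in this replicate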
Rce1 inhib = yeast Rce1p protease inhibitors, primary screen, biochemical, fluorescence, cell-free homogeneous; CAAX prenyl protease 2 (Saccharomyces cerevisiae (strain ATCC 204508 / S288c)), Q03530; yeast membranes, quenched prenylated peptide cleavage fluorescence; calls only; actives 0.27% (n = 290,000);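 active = fall in fluorescence gain of 50% or more versus controls, with final raw signal at or below 3038400; inconclusive = same 50% fall but final raw signal above 3038400; inactive = fall in fluorescence gain under 50%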;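 also: plate controls were neutral control wells for no effect and wells lacking membranes for full effect; tested at 10 µM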
Target sequence (Q03530 whole entry, looked up): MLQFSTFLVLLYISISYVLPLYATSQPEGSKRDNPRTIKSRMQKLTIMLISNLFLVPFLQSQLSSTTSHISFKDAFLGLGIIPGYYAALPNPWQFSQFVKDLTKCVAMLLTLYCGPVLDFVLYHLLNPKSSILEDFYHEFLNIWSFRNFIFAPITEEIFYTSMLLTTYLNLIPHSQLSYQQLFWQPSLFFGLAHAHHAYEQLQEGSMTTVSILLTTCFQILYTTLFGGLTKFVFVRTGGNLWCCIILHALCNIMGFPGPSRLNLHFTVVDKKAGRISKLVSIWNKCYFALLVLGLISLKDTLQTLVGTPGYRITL
CSC inhib = cancer stem cell viability inhibitors, primary screen, luminescence; cancer stem cell-like cells viability; inhibition, % at 7.5 µM; actives 1.1% (n = 300,000);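 active = mean at 75% or more and at least half the replicates too; inconclusive = mean and replicates disagree; tested in HMLE shEcad cells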;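 also: 0% = median of negative and 100% = median of positive control wells; the first replicate is given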
Env fusion inh = inhibitors of HIV-1 Env-driven cell-cell fusion, primary screen, HeLa-JRFL effector, CEM21 target cells, luciferase | inhibition, % at 12.3 µM | actives 1.1% (n = 360,000);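 active = mean replicate inhibition score of at least 50 and every replicate individually at or above 50; inconclusive = only one of the two criteria met; inactive = mean below 50 and not all replicates reaching 50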;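 also: 0% = plate neutral controls and 100% = maraviroc near 300 nM; one replicate is shown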
MT1-MMP act inh = blockers of MT1-MMP proenzyme processing, primary screen, HT1080 RFP-PRO-GFP cells, GFP/RFP fluorescence; actives 0.061% (n = 360,000); GFP/RFP ratio fluorescence, overnight; percent of plate control window, DMSO zero; AID 651647, 2012; GFP/RFP ratio change, % at 20 µM;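 active = GFP/RFP ratio change of at least 30% with cell ATP level not reduced by more than half and red fluorescence within 50% of control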; also: strong numbers were not always called active
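Assay system – RFP-PRO-GFP reporter HT1080 cells · Compound dosing – single dose of 20 µM compound, 1% DMSO final · Incubation – overnight compound exposure at 37 °C · Measure – GFP/RFP fluorescence ratio · Benchmarks – DMSO wells and RFP-L50D-GFP cells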
eIF4H inh = human eIF4H binding inhibitors, primary screen, translation initiation inhibitor project, biochemical, uHTS, fluorescence polarization; eIF4H fluorescence polarization binding assay; inhibition, % at 35 µM; Eukaryotic translation initiation factor 4H (Homo sapiens), Q15056; AID 2012, 2009; actives 0.94% (n = 290,000);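 active = 50% or more with normal probe brightness, or confirmed in later tests; inconclusive = above 50% with abnormal brightness, or retests that disagree; inactive = below 50% or failed in later tests; about a fifth of its hits are not listed in these tables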;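 also: calls also rest on retests at 20 µM and on dose response follow-up; 0% = protein and probe with vehicle and 100% = probe without protein; strong numbers were not always called active; many hits fall short of the cut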
PABP FP inh = PABP poly(A) RNA binding inhibitors, primary screen, biochemical, fluorescence polarization, uHTS | inhibition, % at 35 µM | AID 2014, 2009 | Polyadenylate-binding protein 1 (Homo sapiens), P11940 | actives 1% (n = 290,000);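 active = 50% or more with normal probe brightness, or confirmed in later tests; inconclusive = above 50% with abnormal brightness, or retests that disagree; inactive = below 50% or failed in later tests; about a fifth of its hits are not listed in these tables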;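 also: calls also rest on retests at 20 µM and on dose response follow-up; controls were probe without protein and protein plus probe with vehicle; some compounds called inactive have numbers as strong as hits; many hits fall short of the cut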
Target sequence (P11940 whole entry, looked up): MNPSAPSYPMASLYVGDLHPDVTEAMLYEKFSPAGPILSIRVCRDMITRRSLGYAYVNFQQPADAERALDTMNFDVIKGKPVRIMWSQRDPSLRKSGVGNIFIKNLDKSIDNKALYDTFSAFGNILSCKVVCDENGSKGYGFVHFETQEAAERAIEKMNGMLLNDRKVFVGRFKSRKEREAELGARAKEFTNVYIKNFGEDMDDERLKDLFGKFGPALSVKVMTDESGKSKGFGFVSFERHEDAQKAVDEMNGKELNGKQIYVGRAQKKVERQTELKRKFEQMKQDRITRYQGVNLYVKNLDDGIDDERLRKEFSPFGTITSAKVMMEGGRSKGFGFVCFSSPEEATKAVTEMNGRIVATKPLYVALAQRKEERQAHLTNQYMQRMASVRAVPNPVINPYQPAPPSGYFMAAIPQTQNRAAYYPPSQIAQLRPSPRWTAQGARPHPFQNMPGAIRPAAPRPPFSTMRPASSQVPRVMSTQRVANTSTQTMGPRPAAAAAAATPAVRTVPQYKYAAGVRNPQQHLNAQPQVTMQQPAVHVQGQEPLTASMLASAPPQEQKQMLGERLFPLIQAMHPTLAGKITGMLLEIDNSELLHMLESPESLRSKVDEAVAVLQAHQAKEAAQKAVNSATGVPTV
eIF4H inh retest = also measured in eIF4H inh; calls as there; inhibition, %; compound at 20 µM; confirmation average;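 mean of two retest wells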
PABP FP inh retest = also measured in PABP FP inh; calls as there; inhibition, %; compound at 20 µM; confirmation repeats;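 mean of two retest wells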
MT1-MMP act inh RFP = second read-out of MT1-MMP act inh, no call of its own (marks repeat the call); RFP signal change, %; measured here: RFP expression control read;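 0 = vehicle wells; hits needed this value within 50% of zero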
The depositor's hits bear a star; i = inactive; ? = inconclusive; . = not tested or not shown; & = joins results of further samples; [ ] = another dose, or the depositor's remark.

SMILES	UUG fidelity	Rce1 inhib	CSC inhib	Env fusion inh	MT1-MMP act inh	MT1-MMP act inh RFP	eIF4H inh	PABP FP inh	others
O=C(Nc1nc(-c2ccccc2)ns1)c1ccncc1	-14.2	i	-13.6	-13.6	-8.4	-3.0	-3.8	2.9
COc1ccc(C(=O)N/C(=C/c2cccnc2)C(=O)N2CCN(C)CC2)cc1OC	-0.9	i	-6.3	11.4	3.2	7.2	0.9	4.6
NC(=O)CSc1nc(O)cc(=O)n1-c1ccccc1	-1.1	i	-8.2	-11.2	-7.8	0.8	-1.5	-0.6
Cc1cc(C)cc(OCC(=O)OCC(=O)Nc2cc(S(=O)(=O)N3CCOCC3)ccc2C)c1	-2.9	.	.	4.4	10.1	2.8	.	.
N#Cc1c(NC(=O)c2cnn3cccnc23)sc2c1CCCC2	-15.3	i	-9.4	-38.7	2.1	3.9	-8.5	-3.9
Cn1c(=O)c2c(nc(SCC(=O)NCC3CCCO3)n2C)n(C)c1=O (stereo unspecified)	-13.4	i	-8.4	.	4.3	1.3	-0.1	3.8
COCCn1c(SCC(=O)Nc2nnc(C)s2)nnc1-c1ccoc1C	-15.3	i	-13.7	-8.2	3.2	4.3	-0.9	3.4
Cn1c(=O)c2ccccc2n(CC(=O)N2CCCc3ccccc32)c1=O	-22.8	i	32.3	21.5	2.8	-1.2	0.5	13.9
COc1cc(/C=N/NC(=O)c2cc(-c3ccco3)nc3ccccc23)cc(OC)c1O	.	i	-10.0	14.5	1.8	1.9	?	?
COC(=O)[C@@H](NC(=O)/C=C/c1ccc(OC)cc1)C(C)C	.	i	-5.0	3.9	1.3	1.8	-7.7	14.0
CC1CN(S(=O)(=O)c2ccc(C(=O)N(CCCN(C)C)c3nc4cc5c(cc4s3)OCCO5)cc2)CC(C)O1 (stereo unspecified)	-3.9	i	-5.3	.	-1.8	4.8	.	.
OC1c2cc(Br)ccc2N=C2CCCCCN21 (stereo unspecified)	-24.3	.	.	-10.1	2.0	-2.0	.	.
COc1ccc(C(=O)N/C(=C\c2ccc(SC)cc2)C(=O)NCCCn2ccnc2)cc1OC	.	.	-24.5	-16.8	0.9	2.9	.	.
FC(F)(F)c1cc(Cl)c2nc(-c3ccc(Cl)cc3)c(Cc3ccccc3)n2c1	-8.1	.	.	2.0	5.1	2.5	.	.
COc1ccc(N2CCN(C(=O)c3ccc4c(=O)n(Cc5ccc6c(c5)OCO6)c(=O)[nH]c4c3)CC2)cc1	-13.0	i	1.2	-3.2	3.8	-3.2	-3.4	-4.5
COc1ccc(CN2CC(=O)N(c3ccccc3OC)C2=S)cc1OC	.	i	-4.1	23.6	-2.7	-0.8	2.8	1.6
CCCC(=O)NCc1cc(-c2nn(C)c(=O)c3ccccc23)ccc1C	22.0	i	1.6	-2.9	2.1	1.8	6.5	-0.1
COc1ccccc1C(=O)Nc1ccc(S(=O)(=O)Nc2nccs2)cc1	-10.2	i	3.0	20.4	-0.4	2.0	-6.1	7.2
CCOC(=O)c1cnc2ccc(C)cc2c1NCCN1CCOCC1	-9.1	i	-11.4	-13.7	-2.4	-3.1	1.3	4.0
COc1ccc(S(=O)(=O)Nc2ccc(CC#N)cc2)cc1	-9.0	.	-13.4	.	0.9	-5.7	-8.6	7.3
C[C@@H]1CN([C@@H](C)CO)C(=O)c2cc(-c3ccccc3F)cnc2O[C@H]1CN(C)Cc1cccc(F)c1	0.5&-5.0&10.2	.	.	-2.2&3.0[16.7 µM]	-0.3	-0.1	.	.
CS(=O)(=O)N1CCC(C(=O)Nc2ccc(C(N)=O)cc2)CC1	-8.4	i	-4.5	-4.5	-2.4	-0.8	-4.7	4.1
COc1cc(C(C)=O)ccc1OCC(O)Cn1nc(C)c(C(C)=O)c1C (stereo unspecified)	-15.5	i	-5.1	4.2	4.3	1.8	1.5	0.8
Cc1ccc(OCCn2cc(/C=C(\C#N)C(=O)NCC3CCCO3)c3ccccc32)cc1 (stereo unspecified)	.	i	13.1	-4.5	-1.2	-7.1	-3.5	-2.9
COc1ccc(Cl)cc1C(=O)Nc1ccc(S(N)(=O)=O)cc1	-6.5	.	-9.9	7.5	2.3	-2.0	-10.1	-9.5
OCCCNc1ncnc2c1ncn2[C@H]1CN(C2CCCC2)C[C@@H](CO)O1	7.5	.	.	-10.5	5.5	4.8	.	.
C=CCn1c(=O)c2ccccc2n2c(SCC(=O)O)nnc12	-16.3	i	1.7	1.8	0.1	8.4	-1.3	3.7
O=C(CC(c1ccco1)S(=O)(=O)c1ccccc1)c1ccccc1 (stereo unspecified)	-31.2	i	9.3	-8.1	2.3	0.8	-5.3	-0.1
CCOC(=O)Cn1nc(C)cc1NC(=O)c1cc(OC)c(OC)c(OC)c1	-6.4	i	-12.3	-3.4	12.3	-1.2	2.3	-8.8
COc1ccc2oc(=O)c(C(=O)OCc3ccccc3)cc2c1	-1.7	i	-16.2	-11.3	-3.4	-1.5	-3.6	6.6
COCC(=O)N1CCC(Oc2ccc(C(=O)N[C@H](C(=O)OC)C(C)C)cc2)CC1	-9.8	i	-15.8	2.3	0.2	1.8	-9.8	15.9
Nc1nnc(SCCN2C(=O)c3ccccc3C2=O)s1	-24.3	i	.	-11.5	-0.2	1.3	-8.5	-16.0
O=C(c1ccccc1)N1C(=O)C(c2ccccc2)Oc2ccccc21 (stereo unspecified)	.	i	6.8	-1.3	-1.6	2.5	19.1	-3.3
O=C(NCCCCCCNC(=O)c1cccs1)c1cccs1	.	i	7.0	4.1	1.2	2.2	4.6	-4.3
Cc1cc(C(=O)N/N=C/c2ccncc2)c2ccccc2n1	-22.2	i	-4.3	-1.8	1.6	3.7	2.4	-3.6
CC(=NOC(=O)c1ccc(I)cc1)c1nccs1	-26.1	.	.	-20.1	3.2	2.3	.	.
Cc1cc(N2CCN(C)CC2)nc2ccc(NC(=O)CCC(=O)NCCc3ccc(Cl)cc3)cc12	2.0	i	.	16.8	1.4	3.6	1.6	-15.3
CCn1c(SCC(=O)N/N=C/c2ccc(OC)c(OC)c2)nc2ccccc21	-6.0	i	-4.4	21.1	-1.8	-1.1	-5.4	-6.7
CC(C)CC(NC(=O)CCC(=O)OCC(=O)[C@@]1(O)CCC2[C@@H]3CCC4=CC(=O)C=C[C@]4(C)C3[C@@H](O)C[C@@]21C)C(=O)O (stereo partly specified)	16.2	i	1.5	-58.8	0.9	3.5	-3.6	5.3
CCOc1ccc(C(=O)NCCN2CCCC2)cc1	.	i	-4.7	-1.0	5.2	5.8	-5.6	5.1
Cc1ccc(C(=O)NC(=S)NNC(=O)c2ccccc2O)cc1	-19.5	i	59.5	12.5	2.7	-8.0	19.7	-4.5
Nc1cc(=O)[nH]c(SCC(=O)NNC(=O)Cc2ccccc2)n1	.	i	-13.9	8.8	5.4	6.7	-7.0	35.7
Cc1c(C(=O)OCCOC(C)C)[nH]c2c1C(=O)CC(c1ccco1)C2 (stereo unspecified)	4.4	i	53.9	.	15.5	-8.0	59.1*	-6.9	eIF4H inh retest=70.7*;PABP FP inh retest=32.9
COc1ccc(C(=O)Nc2cccc3c2CCCC3)cc1	-11.4	i	48.2	6.8	1.3	-8.3	-8.9	10.8
OC1O[C@H](c2ccc3c(c2)OCO3)[C@H]2CO[C@H](c3ccc4c(c3)OCO4)[C@@H]12 (stereo partly specified)	-9.2	i	9.5	-3.8	4.3	-1.5	-5.1	-12.2
COc1ccc(-c2nnc(NC(=O)C3CCCN3S(=O)(=O)c3cccs3)o2)cc1 (stereo unspecified)	-24.7	i	.	13.5	2.6	0.6	.	.
C=C(C)c1cccc(C(C)(C)NC(=O)NCc2cccnc2)c1	.	i	-12.3	4.8	-2.9	-2.1	-12.7	15.2
Cc1ccc(C2c3sc(=O)[nH]c3SC3C4CC(C5C(=O)N(C(C)C(=O)O)C(=O)C45)C23)cc1 (stereo unspecified)	10.4	i	-1.8	-9.3	-3.2	-2.1	22.7	-12.6
Cc1ccccc1C(=O)N1CCC(C(=O)N(C)CCOc2ccccc2)CC1	0.2	i	-6.5	.	-1.0	0.1	4.0	10.7

Molecules shown so far with two or more sulfur atoms (seven):
SMILES	UUG fidelity	Rce1 inhib	CSC inhib	Env fusion inh	MT1-MMP act inh	MT1-MMP act inh RFP	eIF4H inh	PABP FP inh	others
COCCn1c(SCC(=O)Nc2nnc(C)s2)nnc1-c1ccoc1C	-15.3	i	-13.7	-8.2	3.2	4.3	-0.9	3.4
CC1CN(S(=O)(=O)c2ccc(C(=O)N(CCCN(C)C)c3nc4cc5c(cc4s3)OCCO5)cc2)CC(C)O1 (stereo unspecified)	-3.9	i	-5.3	.	-1.8	4.8	.	.
COc1ccccc1C(=O)Nc1ccc(S(=O)(=O)Nc2nccs2)cc1	-10.2	i	3.0	20.4	-0.4	2.0	-6.1	7.2
Nc1nnc(SCCN2C(=O)c3ccccc3C2=O)s1	-24.3	i	.	-11.5	-0.2	1.3	-8.5	-16.0
O=C(NCCCCCCNC(=O)c1cccs1)c1cccs1	.	i	7.0	4.1	1.2	2.2	4.6	-4.3
COc1ccc(-c2nnc(NC(=O)C3CCCN3S(=O)(=O)c3cccs3)o2)cc1 (stereo unspecified)	-24.7	i	.	13.5	2.6	0.6	.	.
Cc1ccc(C2c3sc(=O)[nH]c3SC3C4CC(C5C(=O)N(C(C)C(=O)O)C(=O)C45)C23)cc1 (stereo unspecified)	10.4	i	-1.8	-9.3	-3.2	-2.1	22.7	-12.6
